HSD17B inhib: inhibitors of human HSD17B10 dehydrogenase; Q99714; recombinant HSD17B10, NADH fluorescence kinetic; many of its hits are not listed in these tables; Potency, µM (highest dose often 57.1 µM), for the others: at the top dose activity change, negative = inhibition, most hits filed as inhibitors; actives 7.6% (n = 75,000); AID 893; active means well fitted inhibition curve with a large enough effect; inconclusive means small, poorly fitted or top-dose-only effect; inactive means no such curve, though single readings can be large or run the other way;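 further: the protocol describes HADH2 (HSD17B10) and not the HSD17B4 of the title; nearly all actives have a fitted effect of over 70% in size; most hits overshoot -100% by far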
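Enzyme plus compound, 15 min room temperature; substrate mix added (NAD+ 1 mM, beta-hydroxybutyryl-CoA 90 uM final); plates read kinetically for NADH fluorescence. HADH2 was His-tagged, E. coli-derived, 20 nM.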
The depositor's hits bear a star; ? = inconclusive; & = joins results of further samples; [ ] = another dose, or the depositor's remark. On the % scale 0 is the no-effect control and ±100 the full control effect; potency means the concentration at half of the fitted maximal effect. A portion of the library, so the mix of outcomes need not match the whole.

canonical_smiles,HSD17B inhib
CN(C)c1ccc(C=Nc2ccccc2C(N)=O)cc1,?
O=C(c1cccs1)n1cc(C(=S)N2CCOCC2)c2ccccc21,-4%
CC(Cc1ccccc1)C(=O)N(C)Cc1ccccc1 (centres undefined),-7%
N#Cc1c(-c2ccccc2)nc(N2CCOCC2)[nH]c1=O,2%
CC1C=Cc2ccccc2N1C(=O)c1ccccc1 (centres undefined),-5%
O=C(NCCC1=CCCCC1)c1ccc(Cl)c(S(=O)(=O)N2CCOCC2)c1,-14%
COc1ccccc1CNc1ncncc1-c1ccccc1OC,1%
Cc1ccc(C23CC4CC(CC(NC(=O)N5CCN(C)CC5)(C4)C2)C3)cc1,-1%
CC(C)(C)OC(=O)N[C@@H](Cc1ccccc1)c1nnc(S(=O)(=O)Cc2cccc(F)c2)o1,-22%
COc1ccc(OCc2nnc(SCC(=O)NCc3ccco3)o2)cc1,4%
CC(C)CNc1nc(Oc2ccc(=O)n(-c3ccccc3)n2)nc(N2CCOCC2)n1,-3%
Cc1ccc(-c2nc(CS(=O)CC(=O)NCCC(C)C)c(C)o2)cc1 (centres undefined),-15%
CC(C)Oc1ccc(NC(=O)Oc2ccccc2)cc1,-7%
COC(=O)c1[nH]c2cccc(OC)c2c1NC(=O)CCN1CCN(c2cccc(Cl)c2)CC1,25µM*
Cc1cccc(-c2nnc(SCC#N)n2-c2cccc(Cl)c2)c1,-16%
Cc1ccc(OCC(=O)N(Cc2ccc(N(C)C)cc2)C2CCS(=O)(=O)C2)cc1 (centres undefined),-1%
COc1ccccc1N(CN1CCCC1=O)C(=O)c1ccccc1F,9%
Cc1ccc(C)c(-n2c(SCC(=O)Nc3nonc3C)nnc2-c2ccoc2C)c1,-1%
N=C(N)c1ccc(N=Nc2c(O)ccc3c2[nH]c2ccccc23)cc1,-10%[11.4 µM]
Brc1c(OCCOCCn2cncn2)ccc2ccccc12,0%
COc1cc(NC(=O)Cn2c(-c3cncs3)nc3ccccc32)cc(OC)c1OC,9%
COc1cc(/C=N\n2nnnc2N)ccc1OCc1ccc(F)cc1,?
O=C(Nc1nccs1)C1CCN(S(=O)(=O)c2cccnc2)CC1,3%
CCCc1cc(=O)[nH]c(SCC(=O)NC2CCCCC2)n1,14%
O=C(c1cc2ccccc2cc1OCC(O)CN1CCCCC1)N1CCCCC1 (centres undefined),8%
COn1c(=O)c(-c2ccc(Cl)cc2)[n+]([O-])c2ccccc21,-28%
NS(=O)(=O)c1ccc(N=Nc2ccc[nH]c2=O)cc1,?
C/C(CCN1CCCCc2nc(C)c(C)cc21)=N\O[C@@H](C)CN1CCCc2nc(C)c(C)cc21,-3%[11.4 µM]
O=C(c1ccccc1)N1CCN(CC2CC=CCC2)CC1 (centres undefined),-1%
C=CCn1c(SCC(=O)Nc2ccc3c(c2)OCO3)nnc1-c1cc(Br)ccc1O,-15%
COc1ccc(-n2c(=O)c(CCc3ccccc3)nc3cnc(N(C)C)nc32)cc1,-3%
CC(C)NC(=O)C1CCCN(S(C)(=O)=O)C1 (centres undefined),7%
CC(C)CCn1c(=S)[nH]c2ncccc2c1=O,8%
Cc1ncc(CO)c2c1OC(C)(C)OC2,0%
CC(C)(C)NC(=O)CSc1nnc(CN2CCCCCC2=O)n1-c1ccccn1,3%
N#Cc1ccc(NC(=O)COC(=O)C2=COCCO2)cc1,19%
OC1CC(c2ccco2)NC2(CCCCC2)C1 (centres undefined),?
Cc1c(C(=O)NCc2cccnc2)oc2ccc(S(=O)(=O)N3CCCCCC3)cc12,-8%
Cc1cc(NC(=O)CSc2nc(C3CC3)nc3sc4c(c23)CCC(C)C4)no1 (centres undefined),3%
CSc1nnc(Cn2c(=O)sc3ccccc32)n1-c1cccc(Cl)c1,1%
CN1CCN(CC(=O)N(C)c2nc(-c3ccccc3)cs2)CC1,8%
O=C1O/C(=C\Br)CC[C@@H]1c1cccc2ccccc12,16µM*
Cc1cccc(-n2ncc3c(Nc4c(C)n(C)n(-c5ccccc5)c4=O)ncnc32)c1,5%
C#CCCCO/N=C1/C[C@@H](O)[C@@H](O)[C@@H]2[C@@H]3C(=O)N(C4CCCCC4)C(=O)[C@H]3CC[C@@H]12,-4%[11.4 µM]
O=C(c1cc2ncc(Br)cn2n1)N1CCOCC1,-2%
O=c1[nH]c2ccccc2n1C1=CCCC1,10%
CCNc1nc2c(c(=O)[nH]c(=O)n2C)n1CC(C)C,15%
Cc1cc(C)n2nc(SCc3cc(=O)n4c(C)cccc4n3)nc2n1,3%
N#CCCN1CCN(S(=O)(=O)c2ccc(S(=O)(=O)NCc3ccccc3)cc2)CC1,-1%
Cc1ccc(S(=O)(=O)OCC2CN3C(CCC(C)C3c3ccc(Br)cc3)C(=O)O2)cc1 (centres undefined),2%&2%&5%[11.4 µM]
CCN(CCCNC(=O)CN1C(=O)COc2ccccc21)c1ccccc1,-4%
O=C(NCCN1CCN(c2ccccc2)CC1)C1CCCN(S(=O)(=O)c2cnc[nH]2)C1 (centres undefined),9%
FC(F)(F)c1cc(-c2cccs2)nc(NCc2ccco2)n1,32µM*
O=C1c2ccccc2C(=O)N1Cc1nc2ccccc2c(=O)n1Cc1ccco1,2%
c1ccc(-c2nc3ccccc3nc2-c2ccccn2)nc1,-13%
Nc1ccccc1S(=O)(=O)c1ccccc1N,-4%
Cc1cc(C(=O)OCC(=O)c2c(N)n(C)c(=O)n(C)c2=O)c(C)n1-c1ccccc1,-3%
CCN1CCCC1CNC(=O)c1ccc2c(=O)n(CCOC)c(=O)[nH]c2c1 (centres undefined),25µM*
O=C(NCc1ccco1)c1nc(-c2ccccc2)n(-c2ccccc2)n1,1%
COc1ccc(CC(=O)Nc2cccc(C(=O)O)c2C)cc1,3%

Other results follow.
canonical_smiles,HSD17B inhib
Cc1ccnc(N2CCC(C(=O)NCc3ccc4c(c3)OCO4)CC2)n1,-25%
CCOC(=O)c1[nH]c(C)c(C(=O)Nc2ccccc2F)c1C,1%
CN1CCN(CCC(=O)Nc2ccc(F)c(F)c2)CC1,5%
CCOC(=O)N1CCN(Cc2nc(N)nc(Nc3ccc(Oc4ccccc4)cc3)n2)CC1,-16%
COc1cc2c(C(=O)NCc3ccc4c(c3)OCO4)cn(CC(C)C)c(=O)c2cc1OC,-6%
Cc1ccc(N2CC(C(=O)Nc3ccc(S(=O)(=O)N4CCCC4)cc3)CC2=O)cc1 (centres undefined),-3%
COCCn1c(SCC(=O)c2ccc(CNC(C)=O)o2)nc2ccccc2c1=O,0%
Cc1ccccc1NC(=O)CSc1nc2c(c(-c3ccco3)c1C#N)CCCC2,1%
COc1ccc(C(CC(=O)O)NC(=O)COc2ccccc2OC)cc1OC (centres undefined),14%
CCOC(=O)c1cnc(-n2nc(C)cc2C)nc1-n1nc(C)cc1C,-10%
CCOc1ccc(Cn2c(SCCCCC#N)nc3c2c(=O)n(C)c(=O)n3C)cc1OCC,-25%
COC(=O)COc1ccc(S(=O)(=O)N2CCN(c3ccccc3F)CC2)cc1,8%
CSc1nc(N(CCO)CCO)c2sc3nc(-c4ccco4)c4c(c3c2n1)CCC4,-14%
CC(C)n1c(Nc2ccccc2)nc2ccccc21,32µM*
Cc1ccc(-n2c(C)cc(C(=O)OCC(=O)N(CC(C)C)C3CCS(=O)(=O)C3)c2C)cc1 (centres undefined),0%
CC1Cc2ccccc2N1C(=O)CCN1C(=O)C2C3C=CC(C3)C2C1=O (centres undefined),4%
CCCNS(=O)(=O)c1ccc(CCC(=O)NCC2CCCO2)cc1 (centres undefined),-6%
CC(=O)Nc1ccc(S(=O)(=O)N2CCN(C(=O)CCC3CCCC3)CC2)cc1,-2%
COCCn1nnnc1CN(CCCN1CCOCC1)Cc1cc2c(C)ccc(C)c2[nH]c1=O,-9%
O=c1ccc(-c2ccccc2)n[nH]1,4%[11.4 µM]
COc1ccccc1NS(=O)(=O)c1ccc(C)c(C(N)=O)c1,-4%
O=C(Nc1nnc(SCC(=O)N2CCCCC2)s1)C1CCCCC1,-14%
O=C(CN1C(=O)CCC1=O)Nc1ccc(S(=O)(=O)N2CCOCC2)cc1,5%
ClC(Cl)(Cl)C(N1CCN(c2ccccc2)CC1)N1CCN(c2ccccc2)CC1,12%[11.4 µM]
Cc1nc2ccccc2n1-c1ccccc1,-1%
COc1cc(NC(=O)C2CC(=O)NC3=C2C(=O)CC(C)(C)C3)c(OC)cc1Cl (centres undefined),-13%
OC(Cn1cncn1)c1ccc(Cl)cc1Cl (centres undefined),6%
CC(C(=O)O)N1C(=O)CSc2ncccc21 (centres undefined),5%
O=C(O)c1cnn2c1NC(c1cccs1)CC2C(F)(F)F (centres undefined),-7%
CC(Oc1ccccc1Br)C(=O)N1CCc2ccccc21 (centres undefined),-9%
O=C(O)c1ccccc1CN1CCC[C@@H](C(=O)O)C1,-1%[11.4 µM]
Cc1nnn(C23CC4CC(CC(C4)C2)C3)n1,-7%
O=C(NCc1ccco1)C(Cc1ccccc1)NS(=O)(=O)c1cccc2nsnc12 (centres undefined),0%
CCOC(=O)COc1ccc(S(=O)(=O)NCCC2=CCCCC2)cc1,5%
COCCNC(=O)CS(=O)Cc1nc(-c2ccc(Cl)cc2)oc1C (centres undefined),-10%
O=S(=O)(c1ccccc1)n1ccc2ccccc21,-5%
O=C(C1CCCO1)N1CCc2ccccc21 (centres undefined),5%
CC1CCC(C(=O)NC(C(=O)NCCN2CCC(C)CC2)C(C)C)CC1 (centres undefined),5%
CC1CC2(CC(C)(C(=O)CSc3n[nH]c(-c4ccccc4Cl)n3)OC2=O)C(=O)O1 (centres undefined),-7%
CCOC(=O)N1CCN(C(=O)CN(Cc2ccccc2)S(=O)(=O)c2ccc(OC)c(C)c2)CC1,-2%
Cc1cc(C)n2nc(SCC#N)nc2n1,5%
CC(=O)Nc1cc2c(cc1NC(=O)Cn1nc(-c3ccccc3F)ccc1=O)OCCO2,-3%
CC(=O)Nc1ccc(-c2nn[nH]n2)cc1Cl,-1%
Cc1ccccc1N1C(=O)c2ccccc2C1Nc1cccnc1 (centres undefined),3%
CCOC(=O)[C@]1(C(/C=C/c2ccco2)NC(=O)OC)CCCC1=O (some centres undefined),-2%[11.4 µM]
Cc1cccc(Cn2c(=O)c3c(nc4n3CCN4Cc3ccco3)n(C)c2=O)c1,3%
CCc1nc(SCCO)c2oc3ccccc3c2n1,2%
Cc1nn(C)c(C)c1S(=O)(=O)N(CC(=O)Nc1nccs1)c1ccc(C(C)C)cc1,1%
CCOc1cc2[nH]c(=O)n(CC3CCC(C(=O)NCCCOC)CC3)c(=O)c2cc1OCC (centres undefined),25µM*
O=C(c1cnccn1)N(c1ccccc1)C1(C(=O)NC2CCCC2)CCCCC1,-2%
Nc1nc(SCC(=O)c2ccc(Oc3ccccc3)cc2)n[nH]1,?
Cc1[nH]c(N)nc(=S)c1CCC(=O)O,4%[11.4 µM]
C=C1CCO[C@@]2([C@H](O)[C@@](C)(O)CO)NC(=O)[C@]1(O)NC2=O,1%[11.4 µM]
O=C(CN1CCN(c2ccc(F)cc2)CC1)Nc1cccc(C(F)(F)F)c1,-12%
COC(=O)N1CC(c2ccccc2)CC1=O (centres undefined),5%
Cc1cc(OCC(=O)NCCO)cc(C)c1Cl,8%
CCOc1ccccc1NC(=O)CC1NCCNC1=O (centres undefined),-3%
O=C(Cn1cnc2ccccc2c1=O)N1CCN(Cc2ccccc2)CC1,3%
C[C@@]1(O)C(O)[C@@H](CO)O[C@H]1n1cnc2c(NC3CCCC3)nc(Cl)nc21 (some centres undefined),-9%
c1ccc2c(c1)nc1n2CCN1CCNC1CCCCC1,-1%

An excerpt of these results, field by field:
> CC(C)n1c(Nc2ccccc2)nc2ccccc21
  HSD17B inhib = 32µM*
> O=C(c1cc2ncc(Br)cn2n1)N1CCOCC1
  HSD17B inhib = -2%
> Cc1cc(C)n2nc(SCc3cc(=O)n4c(C)cccc4n3)nc2n1
  HSD17B inhib = 3%
> CN1CCN(CCC(=O)Nc2ccc(F)c(F)c2)CC1
  HSD17B inhib = 5%

The results go on.
canonical_smiles,HSD17B inhib
COCCn1c(SCC(=O)Nc2cccc(OC)c2)nnc1-c1ccc(Cl)cc1,11%
Cc1c(C(=O)N2CCN(c3ccc(F)cc3)CC2)sc2nc(-c3ccccc3)cn12,-2%
Cc1ccccc1NC(=O)c1ccc(S(=O)(=O)N(C)C)cc1,6%
Cc1ccccc1S(=O)(=O)Cc1ccc(C(=O)NCCCN2CCN(C)CC2)o1,2%
COc1ccc(-n2nnc3c(=O)n(CC(=O)N4CCCc5ccccc54)cnc32)cc1,-10%
Cc1cccc(Nc2ncnc3nc[nH]c23)c1,32µM*
O=C(O)C1CCCCC1C(=O)NCCCc1ccccc1 (centres undefined),11%

High-throughput results from PubChem.
